CBX7 AlphaScr = inhibitors of human CBX7 binding to H3K27me3 peptide. O95931. AlphaScreen His6-CBX7 / biotin-H3K27me3 peptide binding; hits give low values. normalised signal (fraction of DMSO) (concentration not given with the values). actives 1.1% (n = 66,000). AID 1224903; in the data active means normalised signal below about 0.5;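 further: 100 nL library stock added to about 20 µL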
Target sequence (O95931 whole entry, looked up): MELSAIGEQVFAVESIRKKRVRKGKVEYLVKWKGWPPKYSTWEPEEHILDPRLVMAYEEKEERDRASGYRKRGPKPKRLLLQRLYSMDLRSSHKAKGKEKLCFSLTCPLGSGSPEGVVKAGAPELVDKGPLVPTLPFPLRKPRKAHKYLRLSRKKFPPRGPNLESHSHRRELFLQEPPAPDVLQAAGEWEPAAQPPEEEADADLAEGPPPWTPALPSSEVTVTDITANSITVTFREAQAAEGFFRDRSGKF
CBX7 AlphaScr z-score = recorded beside CBX7 AlphaScr, whose call it bears; z-score; measured here: z-score of CBX7 signal; some inactives read as strong as hits; reference of the scale not given here;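 same signal on another scale; lower means less binding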
The depositor's hits bear a star; & = joins results of further samples. This is a subset, so the mix of outcomes need not match the whole.

SMILES | CBX7 AlphaScr | CBX7 AlphaScr z-score
Cc1ccc(Cn2cc(C(=O)c3ccccc3)c(=O)c3cc4c(cc32)OCCO4)cc1 | 0.538 | -1.63
CN(CCNC(=O)c1cc(=O)[nH]c2ccc(S(=O)(=O)N3CCOCC3)cc12)Cc1ccccc1 | 1.02 | 0.66
O=C(Cc1ccc(-n2c(=O)[nH]c3ccccc3c2=O)cc1)NCc1ccccn1 | 0.939 | -1.21
CCn1c(C)nc2cc(C(=O)N(C)c3ccccc3)ccc21 | 0.992 | -0.224
O=c1c2ccc(Cl)cc2nc(/C=C/c2ccc(OC(F)F)cc2)n1-c1cccc(F)c1 | 1.08 | 4.16
CC(C)N(CCCNC(=O)C(C)n1ncc2ccccc21)Cc1ccccc1 (configuration not stated) | 0.913 | -1.36
CCOC(=O)c1cnc2c(C)cc(C)cc2c1Nc1cccc(C)c1 | 1.52 | 4.96
O=C(CN1C(=O)CSc2ccccc21)NC1CCCCCCC1 | 0.981 | -0.565
COc1cccc(N2CCN(C(=O)C3CCN(S(=O)(=O)c4cnc[nH]4)CC3)CC2)c1 | 0.86 | -1.81
NS(=O)(=O)c1ccc(CCNC2CC(=O)N(c3ccccc3)C2=O)cc1 (configuration not stated) | 1.08 | 0.748
Cc1[nH]c2ccccc2c1CCNC(=O)C1CCCN1C(=O)Nc1ccccc1 (configuration not stated) | 1.07 | 2.13
COc1ccc(-n2nnc3c(=O)n(Cc4ccccc4F)cnc32)cc1 | 0.998 | -0.0563
Cc1ccc(N(C)C(=O)c2cc3c(s2)-c2ccccc2OC3)cc1C | 0.957 | -2.07
O=C(NC1CCCCC1)c1ccc2c(c1)N(Cc1ccc(F)cc1)C(=O)c1ccccc1S2(=O)=O | 1.13 | 2.41
COc1ccc(-c2nn(C)c3sc(C(=O)Nc4cccc(C#N)c4)cc23)cc1OC | 0.941 | -0.766
Cc1ccc2cc(CCNC(=O)C(C)Oc3ccccc3)c(=O)[nH]c2c1 (configuration not stated) | 1.02 | 0.311
Cc1noc(C)c1S(=O)(=O)N1CCCC(C(=O)Nc2ccc3c(c2)OCO3)C1 (configuration not stated) | 1.05 | 0.723
CCc1ccc(-c2nc(CN3CCCC(C(=O)NC4CCCCCCC4)C3)c(C)o2)cc1 (configuration not stated) | 0.924 | -2.1
COc1ccc(C2(C)CCc3oc4ccc(C)cc4c3-c3oc(C)cc32)cc1 (configuration not stated) | 0.931 | -0.541
Cc1cc2nc(Cc3cccc(Cl)c3)c(=O)n(C)c2cc1C | 1.2 | 2.1
O=C(CCCC1=NS(=O)(=O)c2ccccc2N1)Nc1ccccc1 | 1.09 | 0.936
Cc1cccc(-n2ccnc2SCC(=O)NCc2ccc3c(c2)OCO3)c1 | 0.936 | -0.064
COc1cccc(Nc2cc(C)nc3ccc(OC)cc23)c1 | 1.29 | 1.02
COc1ccc(C(c2sc3nc(C)nn3c2O)N2CCCCC2)cc1 (configuration not stated) | 1.06 | 2.79
Cc1[nH]c2c(Cl)cccc2c(=O)c1CN1CCOCC1 | 1.04 | 0.715
COc1ccc(-n2nc(C(=O)NCC(=O)Nc3cccc(NC(C)=O)c3)c3ccccc3c2=O)cc1 | 0.974 | -0.541
O=C(Nc1cccc(F)c1)C1CCN(S(=O)(=O)c2cnc[nH]2)CC1 | 1.05 | 0.385
Cc1ccc(-n2c3c(cc(C(=O)Nc4ccccc4)c2=O)C(=O)CCC3)cc1 | 1.17 | 1.96
COc1cc2c(C(=O)N(C)c3ccc(F)cc3)cn(C)c(=O)c2cc1OC | 1.19 | 1.7
CCN1C(=O)c2ccccc2S(=O)c2ccc(C(=O)NCCCN3CCOCC3)cc21 (configuration not stated) | 0.991 | -0.242
Cc1ccc2cc(CCNC(=O)c3cccc(C(F)(F)F)c3)c(=O)[nH]c2c1C | 1.13 | 0.828
O=C(O)c1nccnc1C(=O)Nc1ccc(F)cc1 | 0.649 | -4.51
Cc1nn(CC(=O)Nc2cccc(O)c2)c(=O)c2ccccc12 | 1.03 | 0.999
Cc1nc2cc(-c3ccc(Cl)cc3)[nH]n2c1C(=O)O | 1.07 | 0.886
O=C(NCCO)c1ccc(-c2nnc(N3CCOCC3)c3ccccc23)cc1 | 0.93 | -0.793
CCOc1ccccc1NC(=O)CN(c1ccc(OC)cc1)S(=O)(=O)c1c(C)nn(C)c1C | 0.866 | -0.959
Cc1ccccc1-n1c(=O)cc(N2CC(C)OC(C)C2)[nH]c1=O (configuration not stated) | 1.01 | 0.169
CC(C)OCCCNC(=O)CCCN1C(=O)CSc2ncccc21 | 0.972 | -0.394
O=C(Nc1c2c(nn1-c1ccc(Cl)cc1)CS(=O)(=O)C2)C1CC1 | 1.04 | 0.274
Brc1ccc(-c2csc(Nc3ncccn3)n2)cc1 | 1.04 | 0.89
Cc1csc2ncc(C(=O)Nc3ccc(Cl)cc3)c(=O)n12 | 1.01 | 0.442
COc1ccc(NC(=O)c2cc(-c3ccc(Cl)cc3)on2)cc1OC | 0.994 | -0.28
COc1cccc(-c2nc(CS(=O)(=O)CC(=O)NCCc3ccc(OC)c(OC)c3)c(C)o2)c1 | 1.01 | 0.191
Cc1c(C(=O)NCc2ccccc2Cl)sc2ncnc(N3CCOCC3)c12 | 1.05 | 1.31
CCCCSCCCNC(=O)CN1C(=O)COc2ccc(S(=O)(=O)N3CCC(C)CC3)cc21 | 1.02 | 0.816

An excerpt from above in order of the CBX7 AlphaScr z-score value, low to high.
molecule	CBX7 AlphaScr z-score
CCOc1ccccc1NC(=O)CN(c1ccc(OC)cc1)S(=O)(=O)c1c(C)nn(C)c1C	-0.959
O=C(NCCO)c1ccc(-c2nnc(N3CCOCC3)c3ccccc23)cc1	-0.793
COc1ccc(NC(=O)c2cc(-c3ccc(Cl)cc3)on2)cc1OC	-0.28
Cc1csc2ncc(C(=O)Nc3ccc(Cl)cc3)c(=O)n12	0.442
Cc1ccc2cc(CCNC(=O)c3cccc(C(F)(F)F)c3)c(=O)[nH]c2c1C	0.828
Cc1nc2cc(-c3ccc(Cl)cc3)[nH]n2c1C(=O)O	0.886

Arranged by formula weight (smallest number first): part of the list above.
SMILES | CBX7 AlphaScr | CBX7 AlphaScr z-score
Cc1ccccc1-n1c(=O)cc(N2CC(C)OC(C)C2)[nH]c1=O (configuration not stated) | 1.01 | 0.169
O=C(Nc1c2c(nn1-c1ccc(Cl)cc1)CS(=O)(=O)C2)C1CC1 | 1.04 | 0.274
O=C(NCCO)c1ccc(-c2nnc(N3CCOCC3)c3ccccc23)cc1 | 0.93 | -0.793

Next compounds.
SMILES | CBX7 AlphaScr | CBX7 AlphaScr z-score
CCCN(C(=O)c1ccccn1)C1(C(=O)Nc2c(C)cccc2C)CCCCC1 | 1.04 | 0.516
CCC(C)NC(=O)c1cc(-c2ccc(F)cc2)on1 (configuration not stated) | 1.04 | 1.19
CCC1Oc2ccccc2N(CC(=O)NCCCN(CC)c2cccc(C)c2)C1=O (configuration not stated) | 0.735 | -2.89
COCCNC(=O)c1ccc2c(c1)nc(C)n2-c1cc(OC)c(OC)c(OC)c1 | 1.04 | 1.65
NC(=O)C1CCN(C(=O)CN2C(=O)COc3ccc(S(=O)(=O)N4CCCC4)cc32)CC1 | 0.878 | -1.87
CCCCNC(=O)c1ccc2c(c1)N(Cc1ccc(Cl)cc1)C(=O)CS2 | 0.97 | -0.64
Cc1ccccc1C(=O)Nc1c(-c2ccccc2)nc2ccccn12 | 0.97 | -0.865
CCCCNC(=O)C1CCCN(S(=O)(=O)c2cnc[nH]2)C1 (configuration not stated) | 0.936 | -1.46
Cc1ccn2c(=O)c(C(=O)NCc3ccccc3)cnc2c1 | 1.04 | 1.01
O=C(CSc1nnc(Cc2cc(=O)[nH]c(=O)[nH]2)n1-c1ccc(Cl)cc1)Nc1ccccc1F | 0.987 | -0.0266
COc1ccc(S(=O)(=O)N(CC(=O)Nc2cccnc2)c2ccc(C)cc2)cc1 | 1.05 | 1.2
O=C1C(Oc2ccccc2)C(c2ccc3c(c2)OCO3)N1CCc1ccc(Cl)cc1 (configuration not stated) | 1.05 | 0.177
CC(=O)N1CCc2cc(S(=O)(=O)N(CC(C)C)CC(C)C)ccc21 | 1.01 | 0.255
COc1ccc(NC(=O)N(C2CCCC2)C2CCN(C(C)=O)CC2)c(OC)c1 | 0.996 | -0.0664
O=C(C1CC1)N1CCc2cc(S(=O)(=O)Nc3ccc(Cl)cc3)ccc21 | 1.01 | 0.252

Three compounds drawn at random from those above:
SMILES | CBX7 AlphaScr | CBX7 AlphaScr z-score
Cc1cc2nc(Cc3cccc(Cl)c3)c(=O)n(C)c2cc1C | 1.2 | 2.1
COc1cccc(N2CCN(C(=O)C3CCN(S(=O)(=O)c4cnc[nH]4)CC3)CC2)c1 | 0.86 | -1.81
O=C(Cc1ccc(-n2c(=O)[nH]c3ccccc3c2=O)cc1)NCc1ccccn1 | 0.939 | -1.21

(more compounds)
SMILES | CBX7 AlphaScr | CBX7 AlphaScr z-score
Cc1nc2c(C(=O)NC3CCCCC3)cnn2c(C)c1Cc1cccc(Cl)c1 | 0.977 | -0.909
CC(C)NC(=O)C1CCN(c2nc3cc(Cl)ccc3s2)CC1 | 1.02 | 0.828
CCOC(=O)c1c(NC(=O)COc2cc(C)ccc2C(C)C)sc2c1CCCC2 | 1.1 | 1.61
O=C1Nc2ccccc2OC1CC(=O)N1CCN(c2cccc(C(F)(F)F)c2)CC1 (configuration not stated) | 0.829 | -0.997
O=C(Nc1cccc(O)c1)c1cc(S(=O)(=O)N2CCCC2)ccc1Cl | 0.984 | -0.429
COc1ccc(NC(=O)c2cn(-c3ccc(C)c(C)c3)c(=O)c3ccccc23)cc1OC | 1.02 | 0.482
Cc1csc2ncc(C(=O)NC(c3ccccc3)c3ccccc3)c(=O)n12 | 1.04 | 0.493
Cc1cccc(CN2CCN(CC(=O)N3CCOCC3)C2=O)c1 | 1.01 | 0.56
CC(NC(=O)C1CCN(C(=O)c2cnn(-c3ccccc3)c2-n2cccc2)CC1)c1ccccc1 (configuration not stated) | 1 | 0.00725
O=C(CCCn1nc(-c2ccccc2)c2ccccc21)NC1CC1 | 1.01 | 0.232
COc1ccc2cc(CCNC(=O)c3c(F)cccc3F)c(=O)[nH]c2c1 | 1.04 | 0.977
CCOc1ccc(-c2nc3cc(NC(=O)c4cccc(OCC)c4)ccc3o2)cc1 | 1.11 | 1.13
CCC1CCCCN1S(=O)(=O)c1ccc2[nH]c(=O)cc(C(=O)NCc3ccc(F)cc3)c2c1 (configuration not stated) | 0.794 | -2.25
Cc1ccc(NC2(c3nnnn3C(/C=C/c3ccc(Cl)cc3Cl)C(C)(C)C)CCCC2)cc1 (configuration not stated) | 0.891 | -2.72
O=S(=O)(c1ccccc1)N1CCC(O)(c2ccccc2)C2CCCCC21 (configuration not stated) | 0.931 | -0.955

Grouped by structure: the compounds so far containing a CF3 group
SMILES | CBX7 AlphaScr | CBX7 AlphaScr z-score
Cc1ccc2cc(CCNC(=O)c3cccc(C(F)(F)F)c3)c(=O)[nH]c2c1C | 1.13 | 0.828
O=C1Nc2ccccc2OC1CC(=O)N1CCN(c2cccc(C(F)(F)F)c2)CC1 (configuration not stated) | 0.829 | -0.997

Carrying on:
SMILES | CBX7 AlphaScr | CBX7 AlphaScr z-score
CCc1ccc(NC(=O)c2cnc(N3CCN(c4ccccn4)CC3)c3ccccc23)cc1 | 0.943 | -1.46
CCC(C)NC(=O)CC1Oc2ccc(C)cc2NC1=O (configuration not stated) | 1.03 | 0.813
Cc1nn2c(C(F)(F)F)c3c(nc2c1-c1ccccc1)CCCC3 | 0.747 | -3
CCOc1ccc(-c2nc(C#N)c(NCc3ccc(C)cc3)o2)cc1 | 1.18 | 1.95
CCOc1ccc(N2C(=O)c3ccccc3C2Nc2cc(OC)cc(OC)c2)cc1 (configuration not stated) | 0.929 | -2.38
CCCCCCCCOc1ccc(C2C(N3C(=O)c4ccccc4C3=O)C(=O)N2c2ccc(C)cc2)cc1 (configuration not stated) | 0.95 | -1.46
COCCN1C(=O)Cn2cccc2C1C(=O)NC1CCCCC1C (configuration not stated) | 1.12 | 2.39
O=C1CC(N2CCN(c3ccccn3)CC2)C(=O)N1c1ccccc1 (configuration not stated) | 0.978 | -0.619
CCCNC(=O)Cn1cnc2sc(C(=O)NC(C)CC)c(C)c2c1=O (configuration not stated) | 1.14 | 1.97
Cc1sc2c(=O)n3c(nc2c1C(=O)NC1CCCCC1)CCCCC3 | 1.02 | 0.808
O=C(CN1C(=O)COc2ccccc21)NCCC1=CCCCC1 | 1.03 | 0.448
Cc1cc2cc(CCNC(=O)c3ccccc3)c(=O)[nH]c2cc1C | 1.06 | 0.375
CCc1ccc(NC(=O)C2CCN(c3nc4ccccc4[nH]3)CC2)cc1 | 1.11 | 1.22
O=C(Nc1cccc(-c2nc3ncccc3o2)c1)c1ccc(Cl)cc1 | 1.08 | 0.566
Cc1cc(C)c2c(NC(=O)Nc3cccc(Cl)c3)n[nH]c2n1 | 1.02&0.914 | 0.572&-0.38
COc1ccc(-c2nnn(CC(=O)Nc3ccc(OC(F)(F)F)cc3)n2)cc1 | 0.941 | -0.565
c1ccc(CCn2c(CSc3nc4ccccc4s3)nc3ccccc32)cc1 | 0.92 | -1.23
Cc1ccccc1OC1C(=O)N(CCc2ccc(F)cc2)C1c1ccc2c(c1)OCO2 (configuration not stated) | 0.795 | -0.724
COc1ccccc1C(=O)Nc1cccc(-c2nc3cc(C)ccc3o2)c1 | 1.11 | 1.04
COc1cc(-n2c(C)nc3cc(C(=O)NCCN4CCOCC4)ccc32)cc(OC)c1OC | 1.03 | 1.4
COc1cc2[nH]c(=O)n(CCCC(=O)NCc3ccc(Cl)cc3)c(=O)c2cc1OC | 1.05 | 1.2
CC1CCCCC1NC(=O)C1CCN(c2nc3ccccc3o2)CC1 (configuration not stated) | 1.01 | 0.224
O=C(NCc1ccc(F)cc1)C1C2C=CC3(CN(Cc4ccccc4)C(=O)C13)O2 (configuration not stated) | 1.02 | 0.955
COc1ccc(-c2noc(C(C)Oc3cccc(Cl)c3)n2)cc1 (configuration not stated) | 1.41 | 18.7
COc1c(Cl)cc(Cl)cc1/C=c1\sc2nc3c(C)c(C)ccc3n2c1=O | 1.06 | 0.401
Cc1ccc(CNC(=O)CCNS(=O)(=O)c2ccc3c(c2)CCC(=O)N3)cc1 | 0.945 | -1.08
Cc1cccc(-n2c(C)nc3cc(C(=O)N4CCOCC4)ccc32)c1 | 1.02 | 0.387
